Screening data (PubChem BioAssay)
UUG fidelity: yeast start codon fidelity modulation. activity score, % at 18.7 µM. hit rate 0.13% among 350,000. S. cerevisiae UUG-firefly luciferase reporter, luminescence/redox ratio. AID 602363;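 active = replicate mean at a twofold rise or more, about +100% in these data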;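 note: firefly luciferase made from a UUG start codon reports start codon fidelity; reporter light over untreated wells divided by growth signal over untreated wells; some hits fall short of that in this replicate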
eIF4H FP inh: inhibitors of RNA binding by human eIF4H; eIF4H fluorescence polarization binding assay; inhibition, % at 35 µM; hit rate 0.94% among 290,000; AID 2012;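 active = 50% or more with normal probe brightness, or confirmed in later tests; inconclusive = above 50% with abnormal brightness, or retests that disagree; inactive = below 50% or failed in later tests; about a fifth of its hits are not listed in these tables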;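 note: calls also rest on retests at 20 µM and on dose response follow-up; 0% = protein and probe with vehicle and 100% = probe without protein; strong numbers were not always called active; many hits fall short of the cut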
PABP polyA inh: PABP-poly(A) binding inhibition; P11940; PABP-poly(A) RNA binding, fluorescence polarization; inhibition, % at 35 µM; hit rate 1% among 290,000;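 active = 50% or more with normal probe brightness, or confirmed in later tests; inconclusive = above 50% with abnormal brightness, or retests that disagree; inactive = below 50% or failed in later tests; about a fifth of its hits are not listed in these tables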;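 note: calls also rest on retests at 20 µM and on dose response follow-up; controls were probe without protein and protein plus probe with vehicle; some compounds called inactive have numbers as strong as hits; many hits fall short of the cut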
Target sequence (P11940 whole entry, looked up): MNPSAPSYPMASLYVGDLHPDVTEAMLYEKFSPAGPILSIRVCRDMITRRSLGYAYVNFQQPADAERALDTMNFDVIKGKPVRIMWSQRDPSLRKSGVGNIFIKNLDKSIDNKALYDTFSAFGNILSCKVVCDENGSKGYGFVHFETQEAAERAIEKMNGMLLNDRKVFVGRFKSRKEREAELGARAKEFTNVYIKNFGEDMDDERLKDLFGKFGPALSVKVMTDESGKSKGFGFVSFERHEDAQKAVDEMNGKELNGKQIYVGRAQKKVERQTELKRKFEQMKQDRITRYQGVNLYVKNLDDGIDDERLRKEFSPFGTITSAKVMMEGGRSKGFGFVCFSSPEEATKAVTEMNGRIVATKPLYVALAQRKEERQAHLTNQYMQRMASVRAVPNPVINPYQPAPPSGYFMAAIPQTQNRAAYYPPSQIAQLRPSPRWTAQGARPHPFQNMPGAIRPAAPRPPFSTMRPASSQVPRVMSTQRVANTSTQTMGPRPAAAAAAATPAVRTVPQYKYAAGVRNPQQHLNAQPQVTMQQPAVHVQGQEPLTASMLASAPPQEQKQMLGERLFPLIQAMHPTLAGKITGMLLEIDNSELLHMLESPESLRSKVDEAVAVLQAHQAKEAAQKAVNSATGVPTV
Env fusion inh: HIV envelope-mediated fusion inhibition. HeLa-JRFL Env/CEM21 cell fusion, luciferase. inhibition, % at 12.3 µM. hit rate 1.1% among 360,000;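 active = mean replicate inhibition score of at least 50 and every replicate individually at or above 50; inconclusive = only one of the two criteria met; inactive = mean below 50 and not all replicates reaching 50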;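 note: 0% = plate neutral controls and 100% = maraviroc near 300 nM; one replicate is shown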
MT1-MMP act inh: MT1-MMP (human) activation inhibition; HT1080 RFP-PRO-GFP cells, GFP/RFP ratio fluorescence, overnight; percent of plate control window, DMSO zero; GFP/RFP ratio change, % at 20 µM; hit rate 0.061% among 360,000; AID 651647;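 active = GFP/RFP ratio change of at least 30% with cell ATP level not reduced by more than half and red fluorescence within 50% of control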; note: strong numbers were not always called active
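Assay system: HT1080 RFP-PRO-GFP cells | Dosing: 20 µM single dose, 1% DMSO | Incubation: Cells overnight before dosing, compound overnight, 37 °C, 5% CO2 | Evaluation: GFP/RFP fluorescence ratio | Control set: DMSO-only wells and HT1080 RFP-L50D-GFP cell wells as references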
CSC inhib: blocks cancer stem cells. cancer stem cell-like cells viability, luminescence. inhibition, % at 7.5 µM. hit rate 1.1% among 300,000. AID 2717;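 active = mean at 75% or more and at least half the replicates too; inconclusive = mean and replicates disagree; tested in HMLE shEcad cells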;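 note: 0% = median of negative and 100% = median of positive control wells; the first replicate is given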
Rce1 inhib: inhibitors of yeast Ras-converting enzyme. AID 2563. hit rate 0.27% among 290,000. Q03530. calls only. yeast membranes, quenched prenylated peptide cleavage fluorescence;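 active = fall in fluorescence gain of 50% or more versus controls, with final raw signal at or below 3038400; inconclusive = same 50% fall but final raw signal above 3038400; inactive = fall in fluorescence gain under 50%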;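 note: plate controls were neutral control wells for no effect and wells lacking membranes for full effect; tested at 10 µM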
MT1-MMP act inh RFP: second read-out of MT1-MMP act inh, no call of its own (marks repeat the call); RFP signal change, %; measured here: RFP expression control read;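 0 = vehicle wells; hits needed this value within 50% of zero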
An asterisk follows results filed as active; i = inactive; ? = inconclusive; · = not tested or not shown. No enrichment for hits; overall some 2.9% were active at least once.

Every second line gives: UUG fidelity	eIF4H FP inh	PABP polyA inh	Env fusion inh	MT1-MMP act inh	MT1-MMP act inh RFP	CSC inhib	Rce1 inhib
O=C(NCc1ccccc1Cl)[C@@H]1CCCN1S(=O)(=O)c1ccc(Cl)cc1
→ 10	·	·	27	4	-4	0	·
COc1ccccc1CNC(=O)COC(=O)c1ccc(C)c(S(=O)(=O)N2CCCCC2)c1
→ -2	-1	5	-9	0	0	-7	i
CCN(c1ccccc1)S(=O)(=O)c1cnc[nH]1
→ -19	0	-10	·	0	4	-6	i
Cn1c(N)c(C(=O)COC(=O)/C=C/c2ccc(Cl)c(Cl)c2)c(=O)n(C)c1=O
→ -9	·	·	-4	-2	-2	-17	·
CC(C)C[C@@H](CNCC(=O)[C@H](C)NC(=O)c1[nH]cnc1C(=O)N[C@@H](C)CN)NC(=O)c1nc[nH]c1C(=O)N[C@@H](C)C(=O)O
→ 147*	·	·	15	3	10	·	·
Cc1cc(NC(=O)c2cccc(S(=O)(=O)N3CCOCC3)c2)no1
→ -24	7	20	-16	-1	1	-7	i
CCN(CC(=O)Nc1cccc(OC)c1)c1ncnc2sc(C)c(C)c12
→ -17	-5	39	58*	3	-18	5	i
COc1cc(/C=C2\C(=N)N3N=C(S(C)(=O)=O)SC3=NC2=O)cc(OC)c1OCCOc1ccccc1C
→ -14	-3	4	12	-2	-2	-3	i
CNC(=O)CN(c1ccc(F)cc1)S(=O)(=O)c1cc(C)ccc1OC
→ -14	-4	0	0	3	2	1	i
COc1cccc(N2CC(C(=O)N3CCC4(CC3)CC(=O)c3ccccc3O4)CC2=O)c1 (stereo unspecified)
→ 2	·	·	-3	2	-11	6	i
NS(=O)(=O)c1ccc(NC(=O)COC(=O)c2cc([N+](=O)[O-])ccc2Cl)cc1
→ -10	0	0	9	-2	-1	-8	i
OCCN1CCN(c2nc(-c3ccccc3)c3cc(Cl)ccc3n2)CC1
→ -16	0	-6	·	0	-3	-6	i
CCOc1ncccc1C(=O)N1CCN(S(=O)(=O)c2ccc(Br)cc2Cl)CC1
→ ·	-7	26	4	-3	0	25	i
CCSc1oc(-c2ccco2)nc1S(=O)(=O)c1ccc(F)cc1
→ 0	18	18	-17	-7	-5	-4	i
CN(CCC#N)C(=O)COC(=O)c1ccc2c(=O)n3c(nc2c1)CCC3
→ ·	8	1	16	-1	-1	-1	i
CC1(C(=O)NCc2ccncc2)Cc2c(-c3cccc(C(F)(F)F)c3)ccnc2O1 (stereo unspecified)
→ 0	·	·	12	-7	-10	·	·
CC(C)N(Cc1nc(-c2ccccc2)no1)C(=O)c1ccc2c(c1)OCO2
→ 21	-6	-9	·	-4	-7	-3	i
Cc1ccc(S(=O)(=O)NCC2CCC(C(=O)N3CCN(C)CC3)CC2)cc1 (stereo unspecified)
→ -16	11	-1	1	0	3	21	i
O=C1C=C(N2CCCCCC2)C2(CCCCC2)O1
→ ·	-3	2	-17	0	-2	-17	i
CS(=O)(=O)N(CC(=O)Nc1ccc(F)cc1F)c1cccc([N+](=O)[O-])c1
→ -12	-3	-9	10	0	1	-2	i
CCCCc1cc(=O)oc2c(C)c(OCC(=O)N3CCC(C(N)=O)CC3)ccc12
→ -30	-14	-7	·	11	2	-3	·
Cc1cccc(NC(=O)c2onc3c2CCCC3)c1C
→ -21	5	-8	·	-3	-1	1	i
Cc1n[nH]c(=S)n1/N=C/c1ccccc1OCc1ccc(Cl)cc1
→ -18	34	-2	-64	-6	-3	-8	i
CCOCCCn1c(SCC(=O)Nc2oc(C)c3c(C)n[nH]c(=O)c23)nc2ccccc2c1=O
→ -7	·	·	6	6	1	·	·
CC1(C(=O)O)CCC(C(=O)N2CCOCC2)C1(C)C (stereo unspecified)
→ -11	-4	-2	-13	0	4	-11	i
O=C(Nc1ccc(OC(F)(F)F)cc1)C1CCCCN1S(=O)(=O)c1ccccc1 (stereo unspecified)
→ -12	·	·	31	-9	-25	·	·
O=C(c1coc(=O)c(Br)c1)N1CCCc2ccccc21
→ -21	67*	98*	·	-4	9	-15	i
CCNC(=O)C1CCCN(C(=O)C(c2ccccc2)c2ccccc2)CC1 (stereo unspecified)
→ -3	·	·	-2	4	7	·	·
CC(C)N1C(=O)N(c2ccccc2)C(C)(O)CC1(C)C (stereo unspecified)
→ ·	-4	-2	10	1	2	-11	i
Cc1ccc(C)c2c1cc(C)c1nnc(SCC(=O)Nc3nc4c(s3)CCCC4)n12
→ -23	0	7	8	1	-2	27	i
O=C1Cc2cc(S(=O)(=O)NCc3ccccc3Cl)cc3c2N1CCC3
→ -8	·	·	-3	2	8	2	i
Cc1cc(C)n2nc(C(=O)OCC(=O)N(C)C3CCCCC3)nc2n1
→ -16	·	·	8	0	2	-10	i
COC(=O)c1ccc(OCC(=O)N2CCCc3ccccc32)cc1
→ -22	-8	-3	-8	0	-2	-8	i
Cc1nc(NC(=O)CSc2nnc(N)s2)c(Cl)cc1Cl
→ -20	-6	-5	7	3	-1	5	i
Cc1ccc(C2=Nc3ccccc3NC(C)(c3ccc(C)o3)C2)o1 (stereo unspecified)
→ -15	?	?	·	-23	3	-19	i
Cc1cc(C)cc(NC(=S)NC2CC3CCC(C2)N3Cc2ccco2)c1 (stereo unspecified)
→ ·	-14	0	·	11	-3	-5	i
Cc1ccc(N2CC(=O)N(NC(=O)c3sc4nc(C)cc(C)c4c3N)CC2=O)cc1
→ ·	-9	-10	2	0	-3	-13	i
COC(=O)c1c(NC(=O)COC(=O)CNC(=O)C2CCCCC2)sc(C)c1C
→ -27	-13	-5	-14	3	8	-2	i
CC(CC(=O)Nc1nccs1)c1ccccc1 (stereo unspecified)
→ -16	-13	-2	-10	2	1	-3	i
C(=C\c1ccccc1)/C=N/Nc1nc(N2CCOCC2)nc(N2CCOCC2)n1
→ ·	-6	-3	·	1	5	-5	i
CC1=CC(C)(C)NC(=S)N1C(C)c1ccccc1 (stereo unspecified)
→ -31	-1	3	7	3	-5	-13	i
O=C(Nc1nnc(CCS(=O)(=O)c2ccc3ccccc3c2)s1)c1cccs1
→ 17	1	26	42	2	2	1	i
CC1(C(=O)NS(=O)(=O)c2cccc(OC(F)F)c2)CCN1C(=O)c1ccco1 (stereo unspecified)
→ -15	·	·	2	0	5	·	·
O=C(Nc1ccc(C(=O)O)cc1)Nc1ccc([N+](=O)[O-])cc1
→ 5	-6	7	9	-1	0	-5	i
Cc1ccc2nc(N(CCCN(C)C)C(=O)c3ccc(S(=O)(=O)N4CCCCCC4)cc3)sc2c1
→ -5	-8	-11	-11	-3	3	1	i
Cn1c(N/N=C\c2cccc(O)c2)cc(=O)n(C)c1=O
→ -24	4	0	8	4	4	-4	i
COc1cc(Cl)c(C)cc1NC(=O)c1ccc(S(C)(=O)=O)cc1
→ ·	0	7	-10	-2	1	-8	i
COc1ccc(NC(=O)CN(C)S(=O)(=O)c2ccccc2)c([N+](=O)[O-])c1
→ -26	-5	7	-6	-14	2	0	i
O=C(Nc1ccncc1)c1sc2ccccc2c1Cl
→ ·	3	5	-20	-1	-11	9	i
COc1ccc(Nc2nc(NC(C)(C)C)nc(N3CCOCC3)n2)c(OC)c1
→ ·	-4	-2	16	-4	-5	-1	·

Next structures
Every second line gives: UUG fidelity	eIF4H FP inh	PABP polyA inh	Env fusion inh	MT1-MMP act inh	MT1-MMP act inh RFP	CSC inhib	Rce1 inhib
COc1nn(CC(=O)N2N=C(C)CC2(O)C(F)F)cc1[N+](=O)[O-] (stereo unspecified)
→ -8	-5	4	12	-5	2	-22	i
COC(=O)C(C)Sc1nc(NCc2ccccc2)nc(N(C)C)n1 (stereo unspecified)
→ ·	1	8	18	5	4	-3	i
Cc1ccccc1OCCn1c(CCNC(=O)C(C)C)nc2ccccc21
→ ·	-4	-2	·	-1	-1	-12	i
O=C(c1ccc2c(=O)n3c(nc2c1)CCCCC3)N1CCCCC1
→ 3	·	·	-4	2	1	-19	i
Cc1ccc(-c2nnn(CC(=O)N(CC3CCCO3)C(C(=O)NC3CCCC3)c3ccc(O)cc3)n2)o1 (stereo unspecified)
→ ·	1	3	0	4	2	9	·
COc1ccc(C(=O)NC2CCN(S(=O)(=O)c3ccc(F)cc3)CC2)cc1
→ -10	0	7	-3	-5	0	-3	i
O=C(NNC(=S)Nc1ccccc1)c1cccc(Br)c1
→ -13	0	10	·	1	0	2	i
COc1cc(NS(=O)(=O)c2ccc(NC(=O)c3ccc([N+](=O)[O-])cc3)cc2)ncn1
→ -13	-5	4	-9	5	2	-1	i
COc1ccc(OC2CCN(S(=O)(=O)c3ccccc3)CC2)cc1
→ -11	-6	9	3	-2	-5	19	i
CN1CCCC(OC(=O)c2ccc3c(c2)OCCO3)C1 (stereo unspecified)
→ -2	2	6	·	4	14	·	i
CC(C)CN(C(=O)c1ccc2c(c1)OCCO2)c1c(N)n(Cc2ccccc2)c(=O)[nH]c1=O
→ ·	·	·	-30	-3	2	0	i
CCC(O)C1CCN(Cc2cn(-c3ccc(OC)cc3)nc2-c2cccc(F)c2)CC1 (stereo unspecified)
→ ·	9	-3	-22	3	0	0	i
Cc1cc2cc(C)c3nnc(SCC(=O)Nc4ccc(S(=O)(=O)N5CCCCC5C)cc4)n3c2cc1C (stereo unspecified)
→ -11	17	6	38	-2	-1	9	i
CCCCn1c(-c2csc(CCC)c2)n[nH]c1=S
→ ·	3	-6	2	4	2	-4	i
Cc1nn(C)c(-c2n[nH]c(=S)n2-c2ccccc2)c1Cl
→ ·	-6	-6	-4	2	5	2	i
CC(C)CCn1c(=O)c2c(nc3n2CCCN3Cc2ccccc2)n(C)c1=O
→ 17	-8	2	42	7	-6	7	i
COc1cccc([C@@H]2CC=C(C(=O)O)[C@H](c3ccc(Cl)cc3)N2S(=O)(=O)c2ccc(C)cc2)c1
→ 13	·	·	13	-2	-2	3	·
CN(O)/C=N/C(=S)Nc1ccc(Cl)cc1Cl
→ -19	-2	-14	-14	5	2	-8	i
Cc1cc(C)n(-c2nnc(C)n2/N=C/c2ccccc2O)n1
→ ·	1	4	-17	-1	-2	-10	i
O=C(CCN1C(=O)/C(=C/c2ccc(Cl)cc2)SC1=S)Nc1cccnc1
→ -15	-3	-15	-14	6	5	-6	i
CC(C)CC(=O)N1CC=CC[C@@H](c2ccc(Cl)cc2)N(Cc2ccc(Cl)cc2)C(=O)[C@@H]1Cc1ccccc1
→ 1	·	·	76*	-15	-16	·	·
O=C(Nc1ccccc1)c1ccccc1OS(=O)(=O)c1ccccc1
→ -2	7	4	4	-1	-2	0	i
O=C(NCC(F)(F)F)c1ccc2sc([C@@H]3O[C@H](CO)[C@H](O)[C@H](O)[C@H]3O)nc2c1
→ 1	·	·	-38	-8	5	·	·
COc1ccc(/C=C2/SC(=O)N(CCNC(=O)CC(NC(C)=O)c3ccccc3)C2=O)cc1 (stereo unspecified)
→ -10	-5	10	-7	-1	-2	-6	i
O=C1CN(C(=O)c2ccc(Cl)nc2)c2ccccc2N1
→ ·	0	-3	-3	-1	5	10	i
NS(=O)(=O)c1ccc(NC(=S)NC(=O)/C=C/c2cccs2)cc1
→ ·	7	-3	11	3	0	-7	i
COc1ccc(CCNC(C(=O)Nc2cc(C)cc(C)c2)c2ccccc2)cc1 (stereo unspecified)
→ -20	-19	-14	24	-9	-6	·	i
CN1CCN(S(=O)(=O)c2cccc(C(=O)NCc3ccccc3Cl)c2)CC1
→ ·	10	-60	12	3	4	-9	i
FC(F)(F)c1nc2ccccc2n1CCNc1nc(CN2CCCCC2)cs1
→ -39	-5	2	13	0	2	-7	i
